Source: PubChem BioAssay (National Center for Advancing Translational Sciences (NCATS))
gsp antag: gsp mutant antagonism. gsp-mutant cells, cAMP HTRF, 30 min; control for the full effect not named in the record. Potency, µM (titrated, usually from 76.9 µM), for the others: top-dose activity change, negative = inhibition, hits mostly inhibitors. 340,000 compounds, 0.4% hits; active = falling curve of any shape with a large fitted effect; inconclusive = falling curve, mostly with a smaller effect; inactive = flat or rising curve; cell line not stated here;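 also: intracellular cAMP measured with PDE inhibitor Ro 20-1724 present during compound exposure; potency is read from the fitted curve at half-maximal effect; % is scaled to controls: 0 for no effect and ±100 for the full control effect; nearly all actives have a fitted effect of over 65% in size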
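Cells, 2000/well, grown 16–24 h in DMEM 10% FBS with 0.5 mg/ml G418, then compounds plus […] (300 uM addition stock), 30 min at 37C. cAMP read by HTRF (cAMP-d2 and anti-cAMP antibody-K in lysis buffer) after 30 min RT.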
PINK1 expr mod: changes PINK1 expression | Potency, µM (doses to about 76.6 µM), for the others: top-dose activation (PINK1 increase), actives largely listed as activators | 410,000 compounds, 0.2% hits | AID 624263 | PINK1 immunofluorescence, high-content cytometry, 24 h; active = well fitted activation curve with a large enough effect; inconclusive = small, poorly fitted or top-dose-only effect; inactive = flat fitted curve, though single readings scatter; cell line not stated here;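 also: potency is read from the fitted curve at half-maximal effect; % of control where 0% means no effect; nearly all actives have a fitted effect of over 65% in size; a mitochondrial uncoupler was the plate control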
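Decision-based qHTS: stable cells, 24 h exposure to five compound concentrations, CCCP as control. Fixed cells stained for PINK1 plus nuclear, mitochondrial and cell markers, cytometer read.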
D2 agonist: activates the human D2 dopamine receptor; DiscoveRx PathHunter D2 beta-arrestin, luminescence, 90 min; 100% = 57 uM dopamine signal; activation, % (test concentration not listed); 360,000 compounds, 0.084% hits; in the data active = activation above about 40%; inconclusive = about 15% to 40%; inactive = below about 15%; also: compound concentration not given in the record; the text of the record calls up to 30% inactive
Target sequence (P14416 whole entry, looked up): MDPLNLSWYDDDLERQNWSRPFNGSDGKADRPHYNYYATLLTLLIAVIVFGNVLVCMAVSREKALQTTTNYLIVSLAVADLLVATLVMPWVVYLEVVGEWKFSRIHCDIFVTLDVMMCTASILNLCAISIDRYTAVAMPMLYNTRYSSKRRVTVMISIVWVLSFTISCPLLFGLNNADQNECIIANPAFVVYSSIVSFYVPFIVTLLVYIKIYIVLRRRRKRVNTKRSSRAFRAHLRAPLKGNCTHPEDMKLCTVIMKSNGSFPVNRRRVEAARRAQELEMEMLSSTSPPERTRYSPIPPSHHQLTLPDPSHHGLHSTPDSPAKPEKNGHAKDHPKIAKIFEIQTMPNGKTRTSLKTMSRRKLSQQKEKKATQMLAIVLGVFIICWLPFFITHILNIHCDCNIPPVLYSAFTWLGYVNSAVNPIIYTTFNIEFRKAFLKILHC
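DiscoveRx PathHunter D2 beta-arrestin cells (2,100/well) attached overnight, then compound-stimulated 90 min at 37 C in HBSS/10 mM HEPES/0.1% Tween-20 buffer; beta-galactosidase complementation read by luminescence after 1 h at ambient temperature. Dopamine 57 uM final (EC100) as control.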
Menin-MLL FL inh: inhibitors of human menin-MLL interaction, wild-type MLL peptide; FP activity change, % at 61.4 µM; 290,000 tested, under 10 active; Fluorescence polarization, fluorescein-MLL peptide displacement from menin; inconclusive = falling polarisation curve, or a change in total fluorescence; inactive = total fluorescence flat and polarisation flat or rising; no compound was filed as active; the % refers to the polarisation; negative = inhibition;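 also: % of control where 0% means no effect; inhibitors lower the polarisation; unlabelled MLL peptide was the positive control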
Sfp PPTase inh: inhibitors of Bacillus subtilis Sfp phosphopantetheinyl transferase; AID 1490; Biochemical Sfp PPTase activity, qHTS; 310,000 compounds, 3.5% hits; Q9F4F7; Potency, µM, inactives show max response, negative = inhibition, most hits filed as inhibitors; active = well fitted inhibition curve with a large enough effect; inconclusive = small, poorly fitted or top-dose-only effect, or another doubt; inactive = no such curve, though single readings can be large or run the other way;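 also: the enzyme is Sfp with the accession as filed and its product quenches rhodamine fluorescence; potency is read from the fitted curve at half-maximal effect; 0% = enzyme reaction without inhibitor and -100% = no enzyme wells; top concentration of the series not given in the record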
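With Hepes-Na pH 7.6 buffer containing 10 mM MgCl2, Sfp (15 nM) modified BHQ-2-YbbR (12.5 uM) using rhodamine-CoA (5 uM). Two reads 30 minutes apart at 525/598 nm yielded each well's rate.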
ClpP mod: qHTS Assay for Activators of ClpP | purified B. subtilis ClpP, FRET peptide cleavage, 20 min | Potency, µM (highest dose often 57.5 µM), without a hit: at the top dose activity change, negative = active | 340,000 compounds, 1.9% hits | AID 651965, 2013; active = well fitted falling curve with a large enough effect; inconclusive = small, poorly fitted or top-dose-only effect; inactive = no such curve, though single readings can be large or run the other way; also: potency is read from the fitted curve at half-maximal effect; the source files actives as falling curves though it sought activators and does not explain the sign; nearly all actives have a fitted effect of over 65% in size; many hits overshoot -100%
Target sequence (P80244 whole entry, looked up): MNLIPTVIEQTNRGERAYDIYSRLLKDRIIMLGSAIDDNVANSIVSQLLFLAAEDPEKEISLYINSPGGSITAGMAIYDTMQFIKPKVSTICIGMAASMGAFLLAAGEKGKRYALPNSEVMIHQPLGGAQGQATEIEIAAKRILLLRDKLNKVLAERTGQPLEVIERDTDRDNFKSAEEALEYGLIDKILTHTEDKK
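ClpP 10 microg/mL final, pH 8 Tris/KCl buffer with BSA, glycerol, Tween-20; compound pinned in; FRET-FV substrate; RT 20 min; Ex320/Em430; ΔFRET vs ADEP 5.8 microM, DMSO, no enzyme.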
gsp agonist: gsp mutant agonism. AID 624287. 340,000 compounds, 0.13% hits. gsp mutant cells, cAMP HTRF, 30 min; control for the full effect not named in the record. Potency, µM (series often up to 76.9 µM), for inactives: at the highest dose activation (cAMP increase), actives largely listed as activators; active = well fitted activation curve with a large enough effect; inconclusive = small, poorly fitted or top-dose-only effect, or another doubt; inactive = no such curve, though single readings can be large or run the other way; cell line not stated here;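 also: phosphodiesterase inhibitor Ro 20-1724 added with compounds to block cAMP breakdown; potency is read from the fitted curve at half-maximal effect; nearly all actives have a fitted effect of over 60% in size; about a fifth of the inactives were tested at one dose only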
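Cells in DMEM/10% FBS with G418 were pretreated with compounds in DMSO plus […] (300 uM stock) for 30 min at 37C. cAMP was measured by HTRF (cAMP-d2 plus anti-cAMP antibody-K) after 30 min at room temperature.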
Numbers without * were called inactive; ? = inconclusive; . = not tested or not shown; & = joins results of further samples; [ ] = another dose, or the depositor's remark.

SMILES	gsp antag	PINK1 expr mod	D2 agonist	Menin-MLL FL inh	Sfp PPTase inh	ClpP mod	gsp agonist
CN1CCN(C(=O)c2cnn3c2NC(c2ccccc2)CC3C(F)(F)F)CC1 (configuration not stated)	12%	0.4%	0.4	-6.1	12%	.	-20%
Cc1occc1C(=O)NCc1ccccc1	8%	4.0%	-2.7	2.5	-4%	-0.5%	-2%
CCSc1nc2ccccc2n1CC(N)=O	12%	0.8%[38.3 µM]	-3.4	0.7	9%	2.4%	-4%
O=C(CN1C(=O)c2ccccc2C1=O)C(O)CN1C(=O)c2ccccc2C1=O (configuration not stated)	.	4.4%	2.8	.	.	0.2%	.
CC(=O)c1cccc(NC(=O)N2CCCC2C(=O)NCc2ccc(C)cc2)c1 (configuration not stated)	4%	1.3%	-3.7	2.4	24%	-2.5%	14%
COc1cccc(CN2CC(C(=O)NC3CCC(O)CC3)CCC2=O)c1 (configuration not stated)	-12%	0.9%	-0.6	0.1	4%	-2.2%	-9%
CN1CCC(N(C)CC(O)c2ccccc2)CC1 (configuration not stated)	7%	0.0%	-0.7	-4.8	-3%	-1.0%	-12%[15.4 µM]
Cc1ccc(-c2nnc(SCC(=O)Nc3ccc4c(c3)OCCO4)n2N)cc1	7%	0.6%	-2.2	2.0	-7%	1.1%	-21%
C/C(CC(=O)NC1CCCCC1)=N\NC(=O)COc1ccc(C)cc1Br	4%	-0.9%	-4.4	4.1	6%	-1.2%	-11%
Cc1cccc(C(=O)NC2CCN(S(=O)(=O)c3ccc(F)cc3)CC2)c1	0%	8.8%	0.5	2.8	13%	0.7%	?
COc1ccccc1N1CCN(C(=O)c2ccco2)CC1	5%	-2.5%	3.4	-8.5	6%	.	-19%
O=C1CCc2cc(S(=O)(=O)Nc3ccc(C(F)(F)F)cc3)cc3c2N1CC3	27%	-0.1%	-2.1	.	.	3.3%	15%
CC(C)CC(NC(=O)C1CCC(C)CC1)C(=O)Nc1cccnc1 (configuration not stated)	3%	-1.3%	-0.4	0.7	6%	-0.3%	-4%
Cc1cccn2c(=O)c(C(=O)NCCCN3CC(C)CC(C)C3)c(O)nc12 (configuration not stated)	5%	3.1%	-4.7	.	.	.	-1%[15.4 µM]
O=C(Nc1cccc(Cl)c1)c1cc(-c2ccco2)on1	-7%	0.6%	-3.8	-5.9	-4%	.	29%[15.4 µM]
Cn1c(=O)c2c(nc(CN3CCc4ccccc4C3)n2CC(=O)c2ccccc2)n(C)c1=O	1%	.	-7.4	.	.	-0.2%	20%
O=C(NC(=S)Nc1cccc([N+](=O)[O-])c1)C1CCCCC1	-7%	10%	2.6	.	-2%	-3.9%	-35%[inhibitor]
COc1ccc(C(=O)N2CCCC(Nc3ccc(C)c(C)c3)C2)cc1 (configuration not stated)	-9%	-0.6%	1.0	.	0%	1.2%	0%
CC(=O)Nc1ccc(S(=O)(=O)N(C)Cc2cnn(C)c2)cc1	3%	3.2%	-3.7	-2.3	0%	-28%	-5%[15.4 µM]
COc1cccc(CN2CCN(Cc3ccc(O)cc3)CC2CCO)c1 (configuration not stated)	4%	0.4%	-3.6	-1.3	8%	-2.0%	39%
COc1cc2[nH]ccc(=O)c2cc1OC	12%	0.5%	-4.2	-0.8	1%	-17%	.
O=C(NC1CCCCC1)N1CCCC(c2nc3ccccc3[nH]2)C1 (configuration not stated)	-6%	0.3%[38.3 µM]	-0.2	-1.9	10%	1.3%	-16%
COc1ccc(NC(=O)COC(=O)c2cc(=O)c3ccccc3o2)cc1OC	5%	6.8%	-3.9	.	.	6.6%	5%
Cc1ccc(Cn2ncc3c(N4CCCC4)ncnc32)cc1	-3%	2.9%	-5.2	-2.0	20%	-1.3%	-13%
O=C(NCCc1ccccc1)c1ccc(-c2ccccc2Cl)o1	-12%	1.9%	0.6	1.7	6%	?	.
COc1ccccc1C(=O)n1nc(-c2ccco2)nc1N	3%	3.2%	-3.8	4.1	5%	1.8%	-24%
O=C1c2cccnc2C(=O)N1Cc1ccc(Cl)cc1	18%	3.7%	-4.8	0.7	12%	-1.5%	-5%
COc1ccc(NS(=O)(=O)c2cc(NC(=O)c3ccc(=O)[nH]n3)ccc2N2CCOCC2)cc1	-1%	4.4%	-3.5	.	.	-1.1%	-8%
C/C(N)=C(/C#N)C(=O)CSc1n[nH]c(-c2cccs2)n1	-23%	0.3%	-4.9	4.5	5%	-4.8%	-8%[15.4 µM]
COc1ccccc1NC(=O)Cn1cc(C(=O)c2ccco2)c2ccccc21	-6%	-0.9%	-0.2	0.6	?	.	1%
CN(Cc1ccccc1)S(=O)(=O)c1nnc(NC(=O)c2ccccc2)s1	?	1.2%&1.5%	-2.8	-2.1	29%	-7.9%&-8.7%	13%
COc1ccc(CCNC(=O)CSc2nnc(-c3cccc(F)c3)o2)cc1OC	-2%	8.6%[38.3 µM]	0.9	-3.0	-2%	0.5%	-12%
CCOc1ccccc1OCCCC(=O)N1CCN(S(=O)(=O)c2ccccc2C#N)CC1	.	-0.3%	0.4	.	.	-1.1%	-26%
COc1ccc(Nc2nc(C)cc(C)c2C(N)=O)cc1OC	-6%	-1.9%	-2.2	-0.3	14%	.	3%
Cc1nnc(SCC(=O)NCCN2C(=O)CSC2=O)s1	1%	0.1%	-2.5	0.6	14%	1.6%	7%
c1ccc(Cn2nnc3c(N4CCc5ccccc5C4)ncnc32)cc1	-11%	2.9%	-0.2	0.7	-12%	?	-42%
O=C(CCN1C(=O)C2CCCCC2C1=O)Nc1cc([N+](=O)[O-])ccc1Cl (configuration not stated)	1%	1.7%	5.9	.	.	-0.3%	-28%
Cc1ccc2c(c1)=N/C(=N\c1[nH]c(O)c3ccccc13)N=2	.	-0.3%	-2.0	.	.	-0.4%	2%
COc1ccc(CNC(=O)C2CCNCC2)cc1	-4%	2.1%	1.7	0.1	14%	-3.5%	15%
COc1ccc(OC)c(/C=C/C(=O)OCC(=O)NCc2ccco2)c1	4%	0.1%	-2.1	.	.	-4.7%	-2%
Cn1cccc1Cc1nnc(SCC(=O)N2CCN(c3ccccc3)CC2)n1-c1ccc(F)cc1	0%	-0.4%	-3.4	11	-17%	0.8%	?
COCc1ccccc1C1=CC(=O)C[C@H](c2ccc(OC)cc2)C1	0%	1.0%	5.9	.	.	2.1%	8%
COc1ccc(/C=N/NC(=O)CCc2c(C)n[nH]c2C)cc1O	1%	.	-1.8	12	5%	-3.5%	-8%
CCOC(=O)c1c(C)[nH]c(C)c1-c1ccccc1OC	10%	-0.4%	0.8	2.0	15%	-1.4%	-7%
COc1ccccc1C(CC(=O)Nc1nccs1)c1ccco1 (configuration not stated)	5%	-1.4%	-4.6	-1.6	-9%	0.0%	7%
COC(C[C@H]1O[C@H]1[C@@H](O)[C@H](C)OCc1ccccc1)OC	14%	0.8%	1.5	1.8	7%	-0.2%	-16%
Clc1ccc(OCCn2cnc(Cl)c2Cl)cc1	13%	1.4%	-0.9	0.4	19%	-1.0%	?
CC1(C)CC(N(Cc2ccccc2)C(=O)Cc2ccccc2)CCO1 (configuration not stated)	-30%	0.4%	4.0	-1.3	20%	3.8%	-34%[inhibitor]

Sorted by the number under Menin-MLL FL inh (lowest first): three from the list above.
SMILES | Menin-MLL FL inh
Clc1ccc(OCCn2cnc(Cl)c2Cl)cc1 | 0.4
CCOC(=O)c1c(C)[nH]c(C)c1-c1ccccc1OC | 2.0
Cn1cccc1Cc1nnc(SCC(=O)N2CCN(c3ccccc3)CC2)n1-c1ccc(F)cc1 | 11

The results go on:
SMILES	gsp antag	PINK1 expr mod	D2 agonist	Menin-MLL FL inh	Sfp PPTase inh	ClpP mod	gsp agonist
COc1ccc(CNC(=O)C(C)N2C(=O)NC3(CCCCCCC3)C2=O)cc1 (configuration not stated)	-7%	2.7%	2.7	.	.	-1.2%	21%
COc1ccc(C(O)c2ncc(-c3ccccc3Cl)[nH]2)cc1 (configuration not stated)	.	0.0%	-1.2	.	.	1.7%	.
CC1(C)Cc2cccc(OCC(=O)Nc3cccnc3Cl)c2O1	0%	-0.1%	-1.2	0.4	-2%	0.5%	-1%
Cc1ccc(S(=O)(=O)N2CCC(C(=O)Nc3ccc(S(=O)(=O)N4CCOCC4)cc3)CC2)cc1	-16%	-0.5%	2.3	.	.	1.0%	-35%[inhibitor]
CSc1ncccc1C(=O)OCC(=O)c1[nH]c(C)c(C(C)=O)c1C	-25%	-0.4%	-2.4	.	.	-1.2%	?
Cn1c(=O)n(-c2cccc(Cl)c2)c(=O)c2c3c(sc21)COC(C)(C)C3	-20%	.	0.8	-1.1	5%	-2.6%	-6%
COc1ccc(OC)c(S(=O)(=O)N2CCC(C(=O)NCc3ccc4c(c3)OCO4)CC2)c1	-3%	1.1%	-1.4	.	13%	-0.7%	-6%[15.4 µM]
CCCNC(=O)c1cc2c(c(-c3cccc(-c4ccc(F)cc4)c3)n1)[C@@H](CCO)N(S(=O)C(C)(C)C)C2 (some centres not stated)	.	-0.6%	5.7	.	.	1.0%	.
Cc1csc(SCC(=O)NC2CCCCC2)n1	4%	-0.4%	1.2	3.1	6%	-3.4%	?
CN1CCN(C(=S)SCC(=O)Nc2nc(-c3ccccc3)c(-c3ccccc3)o2)CC1	8%	5.5%	-1.5	14	18%	2.5%	-70%[inhibitor]
O=C1CSC(c2ccc(Cl)cc2)N1c1cccnc1 (configuration not stated)	9%	-1.2%	-3.6	-0.1	16%	1.0%	-9%[15.4 µM]
Cc1cccc2cc(=O)[nH]c(C)c12	-6%	0.6%	-1.3	0.8	7%	-7.0%	-3%
COc1ccccc1/C=N/NC(=O)c1sc(C)nc1C	-5%	6.1%	0.1	-1.0	3%	.	-40%[inhibitor]
CCCCn1c(SCC(=O)NC(=O)NCc2ccco2)nc2cc(S(N)(=O)=O)ccc21	5%	7.7%[38.3 µM]	-0.5	3.9	?	0.0%	2%
Cc1ccc(CNC(=O)C(NS(=O)(=O)c2cccc3nsnc23)C(C)C)cc1 (configuration not stated)	1%	4.0%	2.0	.	3%	-6.9%	14%
CC1CCCCC1N=CC1=C(O)CC(C)(C)CC1=O (configuration not stated)	7%	-1.9%[38.3 µM]	0.0	1.3	6%	0.9%	13%
